Bioassay records as filed in PubChem BioAssay.
Mtb H37Rv: M. tuberculosis H37Rv growth inhibitors, H37Rv strain (AID 1626); inhibition, % at 10 µM, or IC50 in µM where a hit was titrated; 0.95% of 220,000 active; M. tuberculosis H37Rv growth inhibition; higher % means a stronger effect;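 active = confirmed in a dose series; inconclusive = inhibition above 80% but not taken into the dose series; inactive = below 80% or under 30% at every dose of the series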;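 also: bacteria incubated seven days before Alamar blue readout; 0% = bacteria only wells and 100% = bacteria with antibiotic wells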
Mtb bLac sens: beta-lactam sensitization of Mtb H37Rv. inhibition, % at 25 µM. M. tuberculosis H37Rv growth with meropenem, percent inhibition; hits of this screen are not shown here. 0.27% of 330,000 active;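 active = about 74% or more and at least 40 points above the plate without the antibiotic, then above 30% in a dose series; inconclusive = first-round hits that could not be retested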;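 also: growth measured after seven days incubation then overnight dye step; 0% = bacteria only wells and 100% = bacteria with antibiotic; twin plates without the antibiotic show which effects depend on it; some results filed as inactive read as strong as hits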
RecA intein inh: Mtb RecA intein splicing inhibition | cell-free RecA intein splicing, fluorescence | 0.75% of 290,000 active | inhibition, %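 (about 9 µM by stock and volumes)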; in the data active = inhibition above about 30%; inconclusive = no clear call, values can overlap the other calls;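 also: 0% = vehicle wells and 100% = reference inhibitor control wells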
Target sequence (P9WHJ3 whole entry, looked up): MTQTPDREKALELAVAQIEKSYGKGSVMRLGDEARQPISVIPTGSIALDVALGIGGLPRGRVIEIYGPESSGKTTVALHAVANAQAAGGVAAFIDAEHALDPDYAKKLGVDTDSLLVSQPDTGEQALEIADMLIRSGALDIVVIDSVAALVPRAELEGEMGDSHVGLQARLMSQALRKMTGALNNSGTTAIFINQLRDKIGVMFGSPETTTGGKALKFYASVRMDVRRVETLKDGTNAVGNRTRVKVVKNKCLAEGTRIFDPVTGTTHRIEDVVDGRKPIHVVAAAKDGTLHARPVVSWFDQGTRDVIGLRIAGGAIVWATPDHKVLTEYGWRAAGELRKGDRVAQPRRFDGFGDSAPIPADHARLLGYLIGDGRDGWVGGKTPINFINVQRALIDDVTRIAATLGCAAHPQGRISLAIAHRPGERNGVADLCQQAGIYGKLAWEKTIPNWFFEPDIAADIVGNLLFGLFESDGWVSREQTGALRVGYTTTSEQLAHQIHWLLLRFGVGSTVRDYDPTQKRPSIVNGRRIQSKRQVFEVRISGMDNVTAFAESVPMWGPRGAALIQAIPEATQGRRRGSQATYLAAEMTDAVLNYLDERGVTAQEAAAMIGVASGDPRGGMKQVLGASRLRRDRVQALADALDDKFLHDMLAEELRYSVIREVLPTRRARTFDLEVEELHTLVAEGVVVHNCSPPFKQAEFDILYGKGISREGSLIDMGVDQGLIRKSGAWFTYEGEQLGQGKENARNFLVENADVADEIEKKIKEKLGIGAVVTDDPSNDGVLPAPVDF
Arbovirus anti: antivirals against arbovirus infection; inhibition, % at 10 µM; 0.37% of 200,000 active; arbovirus infection cell-based antiviral screen; AID 1251;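 active = inhibition from about 30%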;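 also: bluetongue infection of BSR cells; cell survival read as ATP light after 72 h; 0% = infected wells without compound and 100% = uninfected wells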
YopH inh: inhibitors of Yersinia enterocolitica YopH tyrosine phosphatase; fluorescence Ex485/Em525; inhibition, %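 (about 10 µM by stock and volumes)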; 0.16% of 140,000 active;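 active = inhibition of 50% or more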;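 also: controls were vehicle for no effect and minimum signal wells for full effect; inactives centre near -20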
Arbovirus anti repeat: further read-out of Arbovirus anti, marked with its call; inhibition, %; measured here: 10K subset replicate screen; many hits read low in the repeat;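 first of two repeat runs on a subset; 0% = infected and 100% = uninfected wells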
The depositor's hits bear a star; ? = inconclusive; nt = not tested or not shown. These rows are one share of the data. The share of hits here may be higher or lower than overall.

SMILES	Mtb H37Rv	Mtb bLac sens	RecA intein inh	Arbovirus anti	YopH inh	others
COc1cccc(OCCNC(=O)c2ccccc2Sc2ccccc2C#N)c1	2%	2	-0.8	-14	-26
CCOC(=O)C1CCCN(C(=O)c2ccc3c(c2)OCO3)C1 (stereo not given)	-7%	-8	2.9	1	-16
COc1ccccc1CCCNC(=O)C1CCC(=O)N(CCN2CCOCC2)C1 (stereo not given)	nt	1	-1.1	nt	nt
Cc1cccc(NC(=O)NCc2ccc3c(c2)cc(C)n3C)c1	7%	6	5.0	-2	5
CCOC(=O)C1CC(c2ccccc2)=NNC1=O (stereo not given)	1%	-8	-1.8	5	nt
O=C(Cc1ccccc1)NCc1ccncc1	3%	-8	0.3	11	nt
CC(NC(=O)c1ccccc1Cl)c1ccc(-n2ccnc2)cc1 (stereo not given)	nt	-8	6.6	nt	nt
Cc1ccccc1OCC(=O)Nc1ccc2[nH]ncc2c1	nt	8	1.4	nt	nt
O=C(O)C1CCCCC1C(=O)NCCc1cccc(Cl)c1 (stereo not given)	-8%	-4	-1.3	5	-17
O=C(Nc1cccc(-c2nc3ccccc3s2)c1)c1cc(-n2cnnc2)ccc1Cl	?	99	4.1	18	-15
Cc1c(/C=N/NC(=O)c2cc(C(C)(C)C)[nH]n2)c2ccccc2n1C	-16%	25	0.2	nt	nt
CN1C(=S)N2CCCN2C1c1ccccc1 (stereo not given)	0%	-2	-11	nt	nt
COc1ccc(N2Cc3ccccc3C2=NC(=O)c2ccc(C)cc2)cc1OC	5%	-5	0.2	0	nt
NNC(=O)/C(=N/Nc1ccccc1)S(=O)(=O)c1ccc(Cl)cc1	?	19	3.4	-24	-27
Cc1ccc(NC(=O)c2cnccn2)c(C)c1	nt	1	-1.1	nt	nt
O=C(O)/C=C/C(=O)Nc1nc(-c2ccc3ccccc3c2)cs1	nt	0	10	nt	nt
Cc1cc(C)cc(C(=O)NCc2ccc3c(c2)OCO3)c1	nt	4	-1.7	nt	nt
COC(C(=O)Nc1ccc(S(=O)(=O)Nc2ccc(F)cc2)cc1)c1ccccc1 (stereo not given)	2%	2	2.0	1	-21
Cc1cc(-c2csc(N)n2)c(C)n1CCC(C)C	10%	1	8.7	-3	-16
COCCNC(=O)Cn1cc(/C=C(\C#N)C(=O)NC2CC2)c2ccccc21	nt	-8	-2.4	nt	nt
COC(=O)c1cc(Br)c(=O)n(-c2ccccc2OC)c1	0%	-13	-5.4	4	-7
CCn1c(C)c(C(=O)O)c2cc(OC)c3ccccc3c21	nt	13	-3.7	nt	nt
Cc1cccc(OCC(=O)NCC(=O)N/N=C/c2cc(Br)ccc2OCc2ccccc2)c1	12%	7	-1.5	3	-7
CCN1CCN(C(=O)C2c3cc(OC)c(OC)cc3C(=O)N3CCc4ccccc4C23)CC1 (stereo not given)	nt	-8	-1.7	6	-7

The last 7 compounds of the part above lead into the next.
SMILES	Mtb H37Rv	Mtb bLac sens	RecA intein inh	Arbovirus anti	YopH inh	others
COC(C(=O)Nc1ccc(S(=O)(=O)Nc2ccc(F)cc2)cc1)c1ccccc1 (stereo not given)	2%	2	2.0	1	-21
Cc1cc(-c2csc(N)n2)c(C)n1CCC(C)C	10%	1	8.7	-3	-16
COCCNC(=O)Cn1cc(/C=C(\C#N)C(=O)NC2CC2)c2ccccc21	nt	-8	-2.4	nt	nt
COC(=O)c1cc(Br)c(=O)n(-c2ccccc2OC)c1	0%	-13	-5.4	4	-7
CCn1c(C)c(C(=O)O)c2cc(OC)c3ccccc3c21	nt	13	-3.7	nt	nt
Cc1cccc(OCC(=O)NCC(=O)N/N=C/c2cc(Br)ccc2OCc2ccccc2)c1	12%	7	-1.5	3	-7
CCN1CCN(C(=O)C2c3cc(OC)c(OC)cc3C(=O)N3CCc4ccccc4C23)CC1 (stereo not given)	nt	-8	-1.7	6	-7
COC(=O)CSc1nc2ccccc2nc1SCC(=O)OC	4.9µM*	98	3.0	0	6	Arbovirus anti repeat=2
CNCC(=O)N(CC(C)C)c1c(N)n(CC(C)C)c(=O)[nH]c1=O	1%	-4	-2.4	8	nt
Cc1cccc(Nc2nc(C)cc(C)n2)c1	nt	-7	-1.1	nt	nt
COC(=O)C1CC(=O)N(c2ccc(C)cc2)C1 (stereo not given)	-12%	-4	-1.5	-1	nt
COc1ccc(NC2CCCN(C(=O)c3cccc(C(F)(F)F)c3)C2)cc1OC (stereo not given)	nt	1	2.5	nt	nt
C/C(=N\Nc1cccc([N+](=O)[O-])c1)c1cc(F)ccc1O	39%	85	-1.3	nt	nt
Cc1cc(C)n(-c2ccc(C(=O)Nc3nc4ccccc4s3)cc2)n1	-3%	1	-1.5	11	-45
COc1ccc(-n2nc(C#N)c(Cl)cc2=O)cc1	?	nt	nt	-34	nt
Cc1ccc(C(=O)Nn2c(C)nc3ccccc3c2=O)cc1C	nt	4	-2.9	nt	nt
Cc1ccc2ncnc(NCCCN3CCOCC3)c2c1	-10%	3	-1.8	11	-5
Cc1cccc2cc(CN(Cc3ccco3)S(=O)(=O)c3ccc4c(c3)OCCO4)c(=O)[nH]c12	6%	2	nt	2	-38
CCCOc1ccc(-c2nc(SCc3ccccc3)[nH]c(=O)c2C#N)cc1OC	nt	9	-2.3	nt	nt
Cc1ccc(Sc2ncccc2O)cc1	nt	75	5.2	nt	nt
CCc1ccc(NC(=O)[C@H](C)NC(=O)C2CCN(C(=O)[C@@H](N)Cc3ccccc3)CC2)cc1	nt	4	0.7	nt	nt
Nn1c(SCC(=O)N2CCOCC2)nnc1-c1ccccc1Cl	-9%	4	1.8	7	0
O=C(NCc1cccc(CNC(=O)c2ccco2)c1)c1ccco1	-2%	1	6.7	0	-38
CCN(CC)S(=O)(=O)c1ccc(OC)c(-n2cnnn2)c1	-1%	-1	-0.1	0	nt
CCCCOc1cccc(C(=O)N(Cc2ccco2)C2CCS(=O)(=O)C2)c1 (stereo not given)	-7%	-4	0.0	7	-3
O=C(COC(=O)c1ccc(S(=O)(=O)N2CCc3ccccc3C2)cc1)NC(=O)NCc1ccco1	-9%	6	2.2	0	-11
COc1ccc(-c2cc(C(F)F)nc(-n3nc(C)cc3C)n2)cc1	nt	nt	-1.3	-4	-36
CC1CCCN(C(C(=O)Nc2ccc(C(C)C)cc2)c2ccc3c(c2)OCO3)C1 (stereo not given)	17%	-7	11	-20	-35
COC(=O)c1ccc(Cn2nc(C(F)(F)F)cc2C)cc1	-11%	-5	0.8	-9	3
CC(C)CNCC1OCc2ccccc2CO1	6%	-2	-2.6	nt	nt
Cc1nn(-c2cc(N3CCOCC3)ccc2[N+](=O)[O-])c(=O)c2ccccc12	4%	2	nt	6	-21
CCCCN1C(=O)C(=Nc2cccc3cnccc23)c2ccccc21	-1%	1	4.2	2	nt
Cc1ccc(C(=O)O/N=C/c2c(Cl)n(C)c3ccccc23)cc1	9%	27	-3.4	-5	-24
O=C(N/N=C/c1ccco1)c1cccc(N2CCCC2=O)c1	6%	6	1.4	-7	-14
CCC1(C)Cc2ccccc2-c2nc3n(c(=O)c21)CCCCC3 (stereo not given)	-4%	28	10	3	-23	Arbovirus anti repeat=4
CCCN1CCN(CCCNC(=O)c2cc3c(=O)n(C)c4ccccc4c3n2C)CC1	-5%	10	1.7	16	-17	Arbovirus anti repeat=-2
COc1cccc(-c2nc(CS(=O)(=O)CC(=O)Nc3cccc(C(C)=O)c3)c(C)o2)c1	nt	-4	4.7	nt	nt
CC(=O)Nc1ccc(Nc2ccc([N+](=O)[O-])cn2)cc1	nt	4	-3.2	nt	nt
CN(CC1COc2ccccc2O1)C(=S)NC1CCCCC1 (stereo not given)	6%	-9	3.1	nt	nt
C=CCNC(=S)NS(=O)(=O)c1cccs1	1%	-1	-0.4	-3	nt
Fc1ccccc1CNC(=S)NCc1ccc(Cl)cc1	nt	1	7.9	nt	nt
O=C(NCc1cccnc1)c1ccccc1NS(=O)(=O)c1ccc(F)cc1F	-6%	-7	-1.1	nt	nt
O=C(Nc1nc(-c2ccc(Cl)cc2)cs1)c1cccnc1	10%	-8	-2.6	-5	-16

Of the compounds above, 2 contain bromine:
SMILES	Mtb H37Rv	Mtb bLac sens	RecA intein inh	Arbovirus anti	YopH inh	others
COC(=O)c1cc(Br)c(=O)n(-c2ccccc2OC)c1	0%	-13	-5.4	4	-7
Cc1cccc(OCC(=O)NCC(=O)N/N=C/c2cc(Br)ccc2OCc2ccccc2)c1	12%	7	-1.5	3	-7

(next part)
SMILES	Mtb H37Rv	Mtb bLac sens	RecA intein inh	Arbovirus anti	YopH inh	others
COc1ccc(-c2nn(CCC#N)cc2C(=O)Nc2cccc([N+](=O)[O-])c2)cc1OC	nt	-1	0.2	nt	nt
Nc1nccnc1C(=O)OCC(=O)NNC(=O)c1ccccc1	nt	-16	2.5	nt	nt
COc1ccc(CC(C)N2CCN(c3ccccc3)CC2)cc1OC (stereo not given)	-11%	-8	-3.0	2	-16
O=C1OC(c2ccccc2)=C/C1=C\N1CCOCC1	-4%	5	3.8	14	-19
N#Cc1c(F)cccc1N1CCN(Cc2ccc3c(c2)OCO3)CC1	nt	9	3.7	nt	nt
CN1CCN(c2nc3c(c(=O)[nH]c(=O)n3C)n2Cc2ccccc2F)CC1	nt	-3	-0.2	nt	nt
C/C=C(\C)C(=O)Nc1cccc(C2=NOC3(C2)C[C@@H](C(N)=O)N(C(=O)c2ccccc2C(=O)c2ccccc2)C3)c1 (stereo not given in full)	-1%	-8	1.0	nt	nt
C=CCn1c(SCC(=O)Nc2nccs2)nnc1-c1cc2cccc(OC)c2o1	-8%	-4	1.2	-14	-14
O=C(C[N+]12CCC(CC1)C(O)C2)c1ccc(Br)cc1 (stereo not given)	nt	-3	-1.7	nt	nt
O=C(Cc1ccc(Cl)c(Cl)c1)N/N=C/c1cccnc1	nt	-4	1.2	nt	nt
COc1cc(OC)c(NC(=O)Cc2cccs2)cc1Cl	nt	-4	1.8	nt	nt
CCOc1ccc(C(=O)NCC(=O)OCC(=O)Nc2cccc(S(=O)(=O)N3CCCC3)c2)cc1	-9%	-6	-0.6	nt	nt
CC(OCC(O)CNCC1COc2ccccc2O1)c1ccc(Cl)cc1 (stereo not given)	0%	2	-1.4	-5	nt
COc1cc(OC)cc(C(=O)Nc2ccc(NC(=O)c3ccco3)c(Cl)c2)c1	4%	-3	6.0	-8	nt
CCOc1cccc(C(=O)NC(=S)Nc2cccc(NC(=O)c3ccccc3Cl)c2)c1	7%	-1	-0.8	-4	-21
CCC(=O)NC(=S)Nc1ccccc1OC	6%	-21	2.0	0	-30
c1ccc(OCCCn2nnc(-c3cccnc3)n2)cc1	20%	8	-2.7	1	21
CCC(CC)NC1CCCCC1OC (stereo not given)	-6%	-3	2.4	5	-33
Cc1cc(C)c(OCCCCN2CCC(C)CC2)c(Br)c1	2%	1	nt	4	nt
Cc1cc([N+](=O)[O-])nn1Cc1ccccc1F	4%	9	-7.8	2	-16
O=C(COC(=O)c1cnccn1)c1ccc([N+](=O)[O-])cc1	-6%	-6	1.2	nt	nt
Cc1ccc(NC(=O)COC(=O)CCC(=O)c2cccs2)cc1C	0%	-4	-0.7	-3	nt
CC(=O)C1=C(O)C(=O)N(CCN2CCOCC2)C1c1ccccc1 (stereo not given)	-16%	9	0.9	1	-52
Cc1cc(NS(=O)(=O)c2ccc(NC(=O)c3ccc(Cl)cc3Cl)cc2)no1	nt	-2	-0.9	nt	nt
CN(C)c1ccc(S(=O)(=O)NCC(=O)NCc2ccccc2)cc1[N+](=O)[O-]	nt	-3	-1.2	nt	nt
COc1ccccc1NC(=O)CSc1nnc(NC(=O)c2ccco2)s1	nt	-18	1.4	nt	nt
COc1ccc(C(C)=O)cc1CN1C(=O)C(C)N(c2ccc(C)cc2)C1=O (stereo not given)	-2%	-21	8.3	4	-42
O=C(CN(CC1CCCO1)C(=O)CNS(=O)(=O)c1ccc(Cl)cc1)NC1CCCCC1 (stereo not given)	nt	-7	6.0	nt	nt
c1coc(Cn2c(SCc3nc4ccccc4[nH]3)nnc2-c2cccs2)c1	-3%	-9	0.9	10	-20	Arbovirus anti repeat=0
CCC(C)(C)NC(=O)C(c1cccs1)N(C(=O)c1ccn[nH]1)c1ccccc1 (stereo not given)	-3%	1	-1.7	10	nt
O=C(Nc1ccc(F)cc1)C(=O)C1C(=O)Nc2ccccc21 (stereo not given)	-14%	7	-2.5	nt	nt
COc1ccc(S(=O)(=O)N2CCCCC2)cc1C(=O)Nc1cc(C)on1	nt	3	-0.1	nt	nt
COc1ccc(NC(=O)c2ccccc2[N+](=O)[O-])cc1OC	-9%	-3	-7.1	5	-19
O=C(CCn1ccc2cc(S(=O)(=O)N3CCCC3)ccc21)NCc1ccccc1	nt	0	-3.8	nt	nt
O=C(CCS(=O)(=O)c1cccc2nsnc12)N1CCN(c2ccccc2F)CC1	0%	-3	1.0	7	-28
COC(=O)C1=C(C)C(c2ccc(OC)cc2)NC(=O)N1 (stereo not given)	-15%	0	-2.7	5	nt
